# Screens deposited in PubChem BioAssay by National Center for Advancing Translational Sciences (NCATS).
# CtBP-E1A blk: inhibitors of CtBP/E1A interaction. 0.49% of 340,000 active. activity change, % (no concentration beside the values). AlphaScreen GST-E1A/His-CtBP binding, 1536-well; active compounds read low; control for the full effect not named in the record; in the data active means activity change below about -65%; inconclusive means about -30% to -65%; inactive means above about -30%; note: % is set by controls: 0 for no effect and ±100 for the full control effect
#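 GST-E1A and His-tagged CtBP (125 nM each as 5X stock) were preincubated with pin-transferred compound for 2 h at 37 °C in the dark, then glutathione donor and nickel acceptor beads were added for 1 h before AlphaScreen reading.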
# gsp ag: gsp mutant agonism. gsp mutant cells, cAMP HTRF, 30 min; control for the full effect not named in the record. 0.13% of 340,000 active. Potency, µM (top dose mostly 76.9 µM), inactives show at the highest dose activation (cAMP increase), actives largely listed as activators. AID 624287; active = well fitted activation curve with a large enough effect; inconclusive = small, poorly fitted or top-dose-only effect, or another doubt; inactive = no such curve, though single readings can be large or run the other way; cell line not stated here;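 note: phosphodiesterase inhibitor Ro 20-1724 added with compounds to block cAMP breakdown; potency is the fitted concentration of half-maximal effect; nearly all actives have a fitted effect of over 60% in size; about a fifth of the inactives were tested at one dose only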
#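 Cells in DMEM/10% FBS with G418 were pretreated with compounds in DMSO plus […] (300 uM stock) for 30 min at 37C. cAMP was measured by HTRF (cAMP-d2 plus anti-cAMP antibody-K) after 30 min at room temperature.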
# D2 potentiator: human D2 receptor positive allosteric modulation; 0.23% of 360,000 active; potentiation, % (no concentration beside the values); P14416; DiscoveRx D2 beta-arrestin cells, luminescence, 90 min; 100% = 57 uM dopamine signal; AID 624464; active = potentiation of 50% or more; inconclusive = 30% to 50%; inactive = 30% or less;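 note: compound concentration not given in the record; tested on top of an EC20 dose of dopamine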
# Target sequence (P14416 whole entry, looked up): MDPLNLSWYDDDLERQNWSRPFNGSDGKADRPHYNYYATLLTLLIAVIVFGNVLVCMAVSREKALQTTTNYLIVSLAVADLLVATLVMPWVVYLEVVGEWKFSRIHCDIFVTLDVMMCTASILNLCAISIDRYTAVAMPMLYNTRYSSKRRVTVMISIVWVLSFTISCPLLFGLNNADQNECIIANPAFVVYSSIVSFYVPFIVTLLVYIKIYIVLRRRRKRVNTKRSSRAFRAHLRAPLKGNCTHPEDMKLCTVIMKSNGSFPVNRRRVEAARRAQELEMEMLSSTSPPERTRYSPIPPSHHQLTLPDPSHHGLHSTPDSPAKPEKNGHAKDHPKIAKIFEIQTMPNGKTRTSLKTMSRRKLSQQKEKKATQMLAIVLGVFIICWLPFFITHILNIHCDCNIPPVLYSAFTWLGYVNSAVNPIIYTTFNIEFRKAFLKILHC
#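 PathHunter beta-arrestin assay in DiscoveRx D2 cells. Compounds were added with an EC20 of dopamine (50 nM final) for 90 min at 37 deg C. Luminescence was read 1 h after detection reagent, with 57 uM dopamine as the EC100 control.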
# D2 ag: activates the human D2 dopamine receptor; P14416; DiscoveRx PathHunter D2 beta-arrestin, luminescence, 90 min; 100% = 57 uM dopamine signal; activation, % (no concentration beside the values); 0.084% of 360,000 active; AID 624465; in the data active = activation above about 40%; inconclusive = about 15% to 40%; inactive = below about 15%; note: compound concentration not given in the record; the text of the record calls up to 30% inactive
#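 DiscoveRx PathHunter D2 beta-arrestin cells (2,100/well) attached overnight, then compound-stimulated 90 min at 37 C in HBSS/10 mM HEPES/0.1% Tween-20 buffer; beta-galactosidase complementation read by luminescence after 1 h at ambient temperature. Dopamine 57 uM final (EC100) as control.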
# gsp antag: antagonists of gsp mutant (McCune-Albright syndrome). gsp-mutant cells, cAMP HTRF, 30 min; control for the full effect not named in the record. Potency, µM (highest dose often 76.9 µM), for inactives: top-dose activity change, negative = inhibition, most hits filed as inhibitors. 0.4% of 340,000 active; active = falling curve of any shape with a large fitted effect; inconclusive = falling curve, mostly with a smaller effect; inactive = flat or rising curve; cell line not stated here;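 note: intracellular cAMP measured with PDE inhibitor Ro 20-1724 present during compound exposure; potency is the fitted concentration of half-maximal effect; % is set by controls: 0 for no effect and ±100 for the full control effect; nearly all actives have a fitted effect of over 65% in size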
#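 Cells, 2000/well, grown 16–24 h in DMEM 10% FBS with 0.5 mg/ml G418, then compounds plus […] (300 uM addition stock), 30 min at 37C. cAMP read by HTRF (cAMP-d2 and anti-cAMP antibody-K in lysis buffer) after 30 min RT.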
# Six1-Eya2 blk: blocks human Six1 binding to Eya2; AlphaScreen GST-Six1/His-Eya2 binding, biochemical; active compounds read low; control for the full effect not named in the record; activity change, % (no concentration beside the values); 0.56% of 360,000 active; in the data active = activity change below about -65%; inconclusive = about -30% to -65%; inactive = above about -30%; note: % is set by controls: 0 for no effect and ±100 for the full control effect
#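 GST-Six1 + His-Eya2 (5X stock: 250/500 nM); Tris pH 8.0, 300 mM NaCl, 0.05% BSA, 0.02% Tween 20; GSH donor/Ni acceptor beads; 1 h 37 °C dark; AlphaScreen readout.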
# * hit, by the source's call; u = inconclusive; x = not tested or not shown; [ ] = another dose, or the depositor's remark.
entry	SMILES	CtBP-E1A blk	gsp ag	D2 potentiator
1	COc1ccc(-c2ccc(-c3noc(C(C)C)n3)c(OC)n2)cc1	15	-27%	-20
2	Cc1ccccc1C(=O)c1cccn1CC(=O)O	2	27%	-8
3	O=C(NCCO)c1cccc(Nc2nc(-c3ccccc3)c3cc(Cl)ccc3n2)c1	7	-3%	-7
4	CCCCNS(=O)(=O)CCNCCc1ccccc1	8	x	x
5	CC(=O)Nc1cccc(N(C)C)c1	-7	-1%	-17
6	COc1ccccc1CN1CCCC(C(=O)N2CCCCC2)C1 (stereo not drawn)	3	-3%[15.4 µM]	-15
7	CCOC(=O)c1ccc(NC(=O)Nn2cnnc2)cc1	8	7%	-14
8	COc1ccc(S(=O)(=O)Nc2cc(C(C)C)c(O)cc2C)cc1	0	3%	-8
9	Cc1cccc(NC(=S)/N=C(\N)Nc2nc(C)c3ccccc3n2)c1	u	-3%[15.4 µM]	-4
10	Cc1ccc(CN2CCN(Cc3ccc4c(c3)OCCO4)CC2CCO)cc1 (stereo not drawn)	x	6%	-20

entry	D2 ag	gsp antag	Six1-Eya2 blk
1	0.6	-2%	2
2	-2.5	-4%	-1
3	4.5	-10%	4
4	-0.1	4%	8
5	-3.5	3%[15.4 µM]	7
6	-1.3	10%	9
7	-1.2	-1%	1
8	0.1	-17%	4
9	-12	-1%	u
10	-7.5	13%	-8

# Following part.
entry	SMILES	CtBP-E1A blk	gsp ag	D2 potentiator
11	Cc1c(O)cnc2nn(-c3ccccc3)c(=N)n12	1	x	-4
12	CC1CN(C(=O)COC(=O)c2ccc3ncsc3c2)CC(C)O1 (stereo not drawn)	-7	21%	-5
13	Cc1cc(C(=O)c2ccc(Cl)cc2)c(NC(=O)CCl)s1	-4	-45%[inhibitor]	-29
14	O=C(c1ccccc1C(F)(F)F)N1CCN(S(=O)(=O)c2ccccc2)CC1	2	3%	-4
15	COc1ccc(-c2nn(-c3ccccc3)cc2C=O)cc1[N+](=O)[O-]	14	-39%	-2
16	CCOC(=O)c1c(=O)n(O)c2ccc(C)cc2[n+]1[O-]	1	u	-35
17	Cc1cccc(NC(=O)CSc2ccc(-c3ccco3)nn2)c1	0	-13%	8
18	COc1cccc(NC(=O)Nc2ccccc2Br)c1	1	-9%	-5
19	O=C(COC(=O)/C=C/c1ccc([N+](=O)[O-])cc1)Nc1ccc2[nH]c(=O)[nH]c2c1	-28	0%	-2
20	O=C(CSc1nnc2ccccn12)Nc1cccc(-c2nc3ccccc3s2)c1	6	9%	-14

entry	D2 ag	gsp antag	Six1-Eya2 blk
11	-5.4	x	1
12	-5.7	5%	8
13	-4.3	-18%	2
14	-1.9	1%	2
15	-2.8	7%	0
16	-3.0	5%	8
17	0.1	3%	-9
18	-4.6	-12%	5
19	6.2	2%	-5
20	-4.2	-19%	8

# (next part)
entry	SMILES	CtBP-E1A blk	gsp ag	D2 potentiator
21	CN1CCC(OC(c2ccccc2)c2ccccc2)CC1	-3	x	-25
22	CC(C)c1ccccc1NC(=O)c1ccc2ncsc2c1	2	-4%[15.4 µM]	-4
23	Cc1ccc(NC(=O)NCCCN2CCCC2=O)c(C)c1	8	2%	2
24	COc1ccccc1CCCNC(=O)C1CCC(=O)N(CCCN2CCCC2=O)C1 (stereo not drawn)	14	-6%	-7
25	O=C(Nc1cccc(C(F)(F)F)c1)C1CCCN(S(=O)(=O)c2cnc[nH]2)C1 (stereo not drawn)	-2	-110%[inhibitor]	-20
26	CN(C)c1ccc(/C=N/OC(=O)Nc2ccccc2Cl)cc1	-2	7%[15.4 µM]	-9
27	O=C(COC(=O)c1ccco1)Nc1ccc2c(c1)OCCO2	-1	3%	-2
28	Cc1ccc(S(=O)(=O)NCCOc2cc(C)ccc2C)cc1	-8	5%	-5
29	CCOC(=O)c1sc2nc(CSc3ccccc3)nc(NCCN(C)C)c2c1C	-16	-8%	-25
30	COc1cc(NC(=S)Nc2ccc3c(c2)OCCO3)cc(OC)c1OC	0	0%[15.4 µM]	-3

entry	D2 ag	gsp antag	Six1-Eya2 blk
21	-2.9	-1%	-2
22	-5.0	0%	-2
23	-4.4	0%	29
24	0.2	1%	9
25	-2.1	-2%	3
26	0.5	1%	4
27	-1.3	10%	16
28	-1.2	-3%	-13
29	-4.7	8%	-9
30	-1.8	-2%	-19

# Next section:
entry	SMILES	CtBP-E1A blk	gsp ag	D2 potentiator
31	COc1c(C)cc(S(=O)(=O)N2CCOCC2)c(C)c1C	-12	-9%[15.4 µM]	4
32	O=C(COc1ccc2ccccc2c1)NNC(=O)C(=O)Nc1ccccc1	-23	3%	0
33	O=C(Cn1cc[n+](CC(=O)c2ccccc2)c1)c1ccccc1	0	12%	-27
34	CCCc1cc(=O)[nH]c2nnc(SCC(=O)Nc3nnc(SCC)s3)n12	7	-10%	-14
35	Cn1cc(Cl)c(C(=O)NNC(=S)Nc2cccc(Cl)c2)n1	-27	-12%[15.4 µM]	-8
36	COc1ccc(C2CC(c3ccc(F)cc3)n3nc(NS(C)(=O)=O)nc3N2)cc1 (stereo not drawn)	2	1%[15.4 µM]	-5
37	COc1ccc(/C=C2/C(=O)OCc3cc(OC)c(OC)cc32)cc1	16	-10%	-23
38	CN1CCC(N(C)C(=O)/C(C#N)=C/c2ccccc2)CC1	2	-25%	-12
39	CC(=O)COc1ccc2c3c(c(=O)oc2c1)CCCC3	-3	25%	10
40	COc1ccc(NC(=O)C2CCN(S(=O)(=O)c3ccc4c(c3)CC(C)N4C(C)=O)CC2)c(OC)c1 (stereo not drawn)	-1	22%	-11

entry	D2 ag	gsp antag	Six1-Eya2 blk
31	-2.2	0%	5
32	-3.7	-1%	5
33	0.1	11%	1
34	0.1	-2%	11
35	-7.9	-19%	-26
36	2.1	-15%	4
37	-1.3	28%	3
38	0.2	8%	5
39	2.4	-1%	0
40	9.6	-23%	0

# The results go on:
entry	SMILES	CtBP-E1A blk	gsp ag	D2 potentiator
41	CCOC(=O)C1=C(Nc2ccc(Br)cc2)CC(C)(O)C(C(=O)OCC)C1c1ccccc1 (stereo not drawn)	3	-6%	-19
42	O=C(Nc1ccccn1)c1cc2ccccc2o1	6	-32%[inhibitor]	-8
43	CCOC(=O)c1ccc(N2CCN(C(C)=O)CC2)c(NC(=O)c2cccnc2)c1	8	6%	-18
44	O=C(NC1CCCCC1)C1CCN(C(=O)c2ccc(-c3ccccc3)cc2)CC1	0	14%[15.4 µM]	-8
45	COc1c(C(=O)Nc2ccc(Br)cn2)ccc2ccccc12	-1	u	-4
46	CC[C@]12c3[nH]c4ccc(Cl)cc4c3CCN1C(=O)[C@@H](CC(=O)NCCc1ccccn1)C[C@@H]2C(=O)N1CCN(C(=O)C2CC2)CC1	3	x	x
47	CCOC(=O)N1CCC(NC(=O)Cn2ncc3c4ccccc4n(C)c3c2=O)CC1	-1	u	-1
48	Cc1cccc(C)c1NC(=O)C[n+]1cc(-c2ccccc2)n2c1CCC2	-1	-1%[15.4 µM]	0
49	O=[N+]([O-])c1ccccc1Oc1ncccc1[N+](=O)[O-]	-4	u	3
50	CC(=O)Nc1ccc2c(c1)-c1ccc(F)cc1C2	31	-2%	-15

entry	D2 ag	gsp antag	Six1-Eya2 blk
41	-1.2	30%[activator]	-3
42	2.3	4%	1
43	-6.1	50µM*	-8
44	-3.3	-7%	7
45	-0.8	10%	7
46	0.3	6%	-4
47	-1.5	9%	1
48	7.2	4%	1
49	-3.1	3%	1
50	-3.0	-12%	1

# (cont.)
entry	SMILES	CtBP-E1A blk	gsp ag	D2 potentiator
51	COc1cc(/C=C(/C#N)C(=O)Nc2ccc(Cl)cc2)ccc1Oc1nc(Cl)ncc1F	0	3%	-1
52	COc1ccc(-n2c(SCC(=O)NCc3ccco3)nc3sc4c(c3c2=O)CCN(C)C4)cc1	-12	27%	-12
53	CCN(CC(=O)Nc1c(F)cccc1F)C(=O)c1cccc(S(=O)(=O)NCc2ccccc2)c1	-18	-7%	-6
54	Cc1c(NC(=O)C(C)OC(=O)c2cccc(S(=O)(=O)N3CCOCC3)c2)c(=O)n(-c2ccccc2)n1C (stereo not drawn)	x	20%	-10
55	Cc1cc(C)cc(N(CC(=O)NC2CCCC2)S(=O)(=O)c2c(C)[nH]c(=O)[nH]c2=O)c1	x	-3%	-10
56	Cc1ccc(S(=O)(=O)Nc2ccc(N3CCOCC3)cc2)cc1C	-23	-17%	-10
57	COc1ccccc1N1C(=O)c2ccccc2NC1c1cc(OC)c(OC)c(OC)c1 (stereo not drawn)	4	-32%[inhibitor]	-22
58	COC(=O)c1ccc(C)c(NC(=O)CN(c2ccccc2)S(=O)(=O)N(C)C)c1	x	16%[15.4 µM]	-4
59	O=C(O)c1cccc(N/N=C/c2cccs2)c1	0	17%	-26
60	Cc1nnc(NC(=O)CSc2ncnc3c2cnn3-c2ccccc2C)s1	30	u	-7

entry	D2 ag	gsp antag	Six1-Eya2 blk
51	3.3	-12%	23
52	-4.6	-21%	-11
53	-0.4	8%	-8
54	-4.6	-3%	6
55	-3.5	8%	1
56	-4.2	-4%	3
57	4.2	u	1
58	3.1	3%	-2
59	1.4	-14%	12
60	-0.4	-17%	4

# Remaining list, next part:
entry	SMILES	CtBP-E1A blk	gsp ag	D2 potentiator
61	Cc1nn2c(C)c(C(=O)Nc3ccccc3)cnc2c1-c1ccccc1	0	0%	2
62	CC(C)(C)C(=O)Nc1sc2c(c1C#N)CCC2	0	-5%[15.4 µM]	-8
63	O=C(Nc1ccccc1)Nc1cccc2cccnc12	-5	-8%	-16
64	CCNC(=S)NNC(=O)C(c1ccccc1)c1ccccc1	-11	-34%[inhibitor]	-9
65	COc1cccc(CNc2nc3nc(C)c(Cl)c(=O)n3[nH]2)c1	2	2%[15.4 µM]	4
66	CCC(=O)N1CCN(c2ccc(Cl)cc2NC(=O)c2ccc(Br)o2)CC1	41	9%	5
67	CC(C)c1nc(SCC(=O)Nc2ccc(N3CCOCC3)cc2)c2ccccc2n1	4	9%	-1

entry	D2 ag	gsp antag	Six1-Eya2 blk
61	-0.1	u	11
62	-4.3	15%	3
63	-0.2	u	-2
64	-4.2	2%	-2
65	-3.3	8%	-4
66	-1.8	-10%	23
67	-2.3	11%	-7

# 3 compounds out of the list above, ordered by their value in gsp antag, falling.
no. | mol | CtBP-E1A blk | gsp ag | D2 potentiator | D2 ag | gsp antag | Six1-Eya2 blk
67 | CC(C)c1nc(SCC(=O)Nc2ccc(N3CCOCC3)cc2)c2ccccc2n1 | 4 | 9% | -1 | -2.3 | 11% | -7
65 | COc1cccc(CNc2nc3nc(C)c(Cl)c(=O)n3[nH]2)c1 | 2 | 2%[15.4 µM] | 4 | -3.3 | 8% | -4
66 | CCC(=O)N1CCN(c2ccc(Cl)cc2NC(=O)c2ccc(Br)o2)CC1 | 41 | 9% | 5 | -1.8 | -10% | 23

# No enrichment for hits; about 1.4% have a hit in one of these screens.
